# ALR H2O2 inh: human ALR oxidase inhibition via reduced H2O2; 3.8% of 290,000 active; purified ALR, DTT oxidation, H2O2 HRP-luminol luminescence; inhibition, % (no concentration beside the values); AID 485317; P55789;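 active = mean and each replicate at 75% or more; inconclusive = only one of the two met; inactive = neither met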;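 also: stock transfer was 7.5 nL into about 7.5 µL; 0% = neutral wells and 100% = wells with inactivated enzyme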
# UCH37 inh: blocks the human deubiquitinase UCH37. inhibition, % (no concentration beside the values). purified proteasome/UCH37, Ub-AMC cleavage fluorescence. Q9Y5K5. 0.33% of 330,000 active;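 active = mean of two replicates above 20%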;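 also: 0% = compound-free wells with enzyme and 100% = wells lacking proteasome; stock transfer was 100 nL into about 20 µL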
#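 Signal – fluorescence, ex 355 nm, em 460 nm · System – Proteasome-bound UCH37 · Input – 0.15 nM proteasome as dispensed · Timing – 30 min preincubation with enzyme, 25 min cleavage at room temperature · Read-out basis – percent inhibition of cleavage signal versus uninhibited and no-proteasome wells · Medium – Tris-HCl pH 7.4 with ATP-MgCl2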
# B2AR ag: human beta-2 adrenergic receptor agonism by FAP | Am2.2-beta2AR cells, FAP receptor internalization, flow cytometry; reference of the scale not given here | response, % (test concentration not listed) | 0.43% of 340,000 active | P07550;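 active = response above a set limit, near 3 SD of response in nonfluorescent compounds, cut at about 42% in these data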;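 also: stock transfer was 100 nL into about 11 µL; a reference agonist was the positive control; negative values mostly stem from fluorescent compounds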
# Target sequence (P07550 whole entry, looked up): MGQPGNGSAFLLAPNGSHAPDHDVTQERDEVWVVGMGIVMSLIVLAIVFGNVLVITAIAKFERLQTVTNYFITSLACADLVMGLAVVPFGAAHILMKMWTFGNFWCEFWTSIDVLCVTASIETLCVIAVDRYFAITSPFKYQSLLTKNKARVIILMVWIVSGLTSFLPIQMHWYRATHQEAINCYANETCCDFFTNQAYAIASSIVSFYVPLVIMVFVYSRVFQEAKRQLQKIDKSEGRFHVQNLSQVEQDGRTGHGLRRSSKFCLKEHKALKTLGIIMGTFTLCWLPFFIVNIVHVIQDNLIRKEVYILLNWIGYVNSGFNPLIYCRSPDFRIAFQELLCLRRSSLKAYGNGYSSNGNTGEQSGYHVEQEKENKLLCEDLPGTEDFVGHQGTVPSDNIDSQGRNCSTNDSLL
# Ecoli rRNA inh: selective bacterial rRNA inhibition in E. coli | E. coli WT GFP vs humanized-ribosome RFP mutants, fluorescence, 24 h; hits give low values; DMSO median 0, no signal -100 | GFP signal change (wild-type ribosome), % (concentration not given with the values) | 1.6% of 350,000 active;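 active = significant combined selectivity score with lowered wild-type GFP, culture density cut under 30%, mutant RFP and density less affected; inactive = any of these conditions unmet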; also: one replicate is shown; some compounds called inactive have numbers as strong as hits
# HNF4A DNA FP: change in binding of human HNF4 alpha to DNA; P41235; HNF4a-FITC DNA binding, fluorescence polarization, 1 h; activity change, % at 10 µM; 0.3% of 360,000 active; AID 1224865; in the data active = activity change above about 30%, passing the limit was not always enough;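 also: controls were the assay level and a saturating level of protein; the project sought stronger binding though the title names inhibitors; some compounds called inactive have numbers as strong as hits; positive values seem to mean higher polarization but the record does not say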
# Target sequence (P41235 whole entry, looked up): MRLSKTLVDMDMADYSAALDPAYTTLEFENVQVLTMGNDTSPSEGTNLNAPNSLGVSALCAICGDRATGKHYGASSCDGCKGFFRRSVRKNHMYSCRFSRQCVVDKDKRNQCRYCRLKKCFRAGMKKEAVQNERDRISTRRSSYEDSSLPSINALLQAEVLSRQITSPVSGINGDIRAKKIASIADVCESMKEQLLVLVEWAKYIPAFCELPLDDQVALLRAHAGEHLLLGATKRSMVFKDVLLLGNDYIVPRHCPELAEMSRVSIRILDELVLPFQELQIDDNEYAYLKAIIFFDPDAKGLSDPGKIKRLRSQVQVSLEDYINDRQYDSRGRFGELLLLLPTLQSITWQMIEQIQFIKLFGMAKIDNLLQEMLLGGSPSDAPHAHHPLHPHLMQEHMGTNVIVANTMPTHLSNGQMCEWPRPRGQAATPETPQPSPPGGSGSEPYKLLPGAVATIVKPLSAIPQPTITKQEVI
# FGF22 binding: shifts melting point of recombinant human FGF22 | Q9HCT0 | recombinant FGF22 thermal shift, SYPRO orange fluorescence; percent of sucrose octasulfate shift, DMSO zero | calls only at 9.99 µM | 1.5% of 340,000 active | AID 651658;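 active = melting point raised past a set limit in the mean and every replicate; inconclusive = no clear call; three in four hits are not shown here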
# Target sequence (Q9HCT0 whole entry, looked up): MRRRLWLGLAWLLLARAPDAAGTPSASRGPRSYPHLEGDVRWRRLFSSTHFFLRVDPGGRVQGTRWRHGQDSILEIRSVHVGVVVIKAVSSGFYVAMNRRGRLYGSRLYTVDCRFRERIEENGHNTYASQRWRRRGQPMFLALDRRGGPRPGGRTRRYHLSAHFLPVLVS
# Ecoli growth: inhibitors of Escherichia coli growth; 0.21% of 330,000 active; AID 1053175; OD600 absorbance (test concentration not listed); OD600, 23 h; hits give low values;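 active = OD600 absorbance below the run mean of sample wells minus 3.6 SD, in any replicate, cut at about 0.56 in these data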;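 also: stock transfer was 300 nL into about 60 µL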
# Ecoli rRNA inh OD600: also measured in Ecoli rRNA inh; calls as there; OD600 change, %; measured here: OD600 growth;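 optical density of the mix in the first replicate; 0 = DMSO median and -100 = no signal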
# Ecoli rRNA inh RFP: also measured in Ecoli rRNA inh; calls as there; RFP signal change, %; measured here: RFP humanized mutant strains;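 first replicate; 0 = DMSO median and -100 = no signal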
# Active calls of the source: *; i = inactive; ? = inconclusive; . = not tested or not shown. An excerpt; the hit share may differ from the screen's.
SMILES,ALR H2O2 inh,UCH37 inh,B2AR ag,Ecoli rRNA inh,Ecoli rRNA inh OD600,Ecoli rRNA inh RFP,HNF4A DNA FP,FGF22 binding,Ecoli growth
O=C(NNS(=O)(=O)c1ccccc1[N+](=O)[O-])c1cccc(Br)c1,25,2.7,-5,-51,-76,-23,-1.5,i,0.63
CCCn1c(N)c(N(CCOC)C(=O)c2cc(Cl)nc3ccccc23)c(=O)[nH]c1=O,.,1.4,-4,14,9,-0.7,-3.5,.,0.65
CC(NS(=O)(=O)c1ccc(Br)cc1F)[C@H](O)c1ccccc1 (stereo partly drawn),.,.,.,-15,-11,4.9,-0.8,i,.
O=C(c1cccnc1)C1CCCN(Cc2nc(Cc3ccccc3F)no2)C1 (stereo not drawn),-2,2.5,2,8,6,2.0,-3.6,i,0.7
COc1ccc(N(C(=O)c2cnccn2)C(C(=O)NC2CCCCC2)c2cc(OC)c(OC)c(OC)c2)cc1 (stereo not drawn),-4,2.5,6,0,2,-3.2,0.9,i,0.66
O=CNc1cc(-c2ccccc2Oc2ccccc2)cn2c(-c3ccc(F)cc3)cnc12,.,.,.,-5,-8,3.5,3.6,i,.
CC(C)NC(=O)NC(=O)COC(=O)c1ccc(S(=O)(=O)Nc2ccccc2)cc1,-4,0.4,9,-27,-25,5.6,-3.5,i,0.63
O=[N+]([O-])c1cccc(-c2nc(NCc3ccccc3)c3ccccc3n2)c1,40,3.6,-4,.,.,.,-0.9,.,0.73
CCOC(=O)c1ccc(N2CCOCC2)c(NS(=O)(=O)c2ccc(F)cc2)c1,2,1.3,6,-4,-11,-3.7,1.7,i,0.7
Cc1cccc(OCCCC(=O)Nc2ccc(S(=O)(=O)Nc3onc(C)c3C)cc2)c1C,?,4.6,13,.,.,.,-6.6,.,0.74
CCOc1ccccc1CN1CCNC(=O)C1CC(=O)NC1CCCCCC1 (stereo not drawn),0,-1.2,3,-2,-6,0.2,-5.0,i,0.62
CCOC(=O)C1C(=O)NC(c2ccccc2)=NC1c1ccc(OC)cc1 (stereo not drawn),5,-1.4,10,2,15,-1.4,-0.7,i,0.67
CC(C(=O)N1CCCC1)N1CCN(S(=O)(=O)c2ccc(C(C)(C)C)cc2)CC1 (stereo not drawn),-2,3.0,-6,2,-2,3.4,-1.9,i,0.7
COC(=O)c1c(C)[nH]c(C(=O)CN2C(=O)C3CC=CCC3C2=O)c1C (stereo not drawn),-7,0.6,2,.,.,.,0.9,i,0.69
CC1=C(C)CC(C(=O)NCCc2ccc(F)cc2)C(C(=O)O)C1 (stereo not drawn),-5,.,-2,5,3,0.6,-1.3,.,.
Cc1c(Cl)cccc1NC(=S)N1CCCN(Cc2ccccc2F)C1,-23,2.1,3,4,8,1.6,-2.4,i,0.62
OCC1(Cc2cccc(F)c2)CCN(Cc2cccc3nccnc23)CC1,-41,0.1,2,16,15,-16,2.3,i,0.72
Cc1cccn2c(=O)c(/C=C(\C#N)C(=O)NCc3ccco3)c(N3CCC(C(N)=O)CC3)nc12,.,4.0,-15,5,4,7.6,-2.8,i,0.73
COc1ccc(C)cc1NC(=O)NCc1ccccc1F,0,3.6,0,-1,0,-5.4,-3.7,i,0.65
Cc1c(NC(=O)C(C)OC(=O)c2cccc(S(=O)(=O)N(C)C)c2)c(=O)n(-c2ccccc2)n1C (stereo not drawn),-23,1.7,-10,11,12,3.0,-0.3,i,0.7
CC(C)Cc1nnc(NC(=O)CCC(=O)Nc2ccc(Cl)cc2)s1,-8,-0.4,-5,5,8,-2.3,0.7,.,0.63
O=C(NCCOC(=O)c1ccncc1)c1ccccc1,10,-0.9,-1,.,.,.,1.4,.,0.72
O=C(Cc1c(Cl)cccc1Cl)Nc1cccc(S(=O)(=O)N2CCOCC2)c1,-5,1.5,-4,-23*,4.9*,-1.6*,5.2,i,0.72
Oc1ccccc1/C=N/Nc1cc(N2CCCC2)nc(N2CCCC2)n1,17,.,27,.,.,.,3.6,.,.
COc1ccc(/C=C/C(=O)NC(=S)Nc2ccc(C(=O)O)cc2)cc1,8,-5.7,4,.,.,.,-3.2,.,0.68

# Next section; it opens with the four that closed the last part.
SMILES,ALR H2O2 inh,UCH37 inh,B2AR ag,Ecoli rRNA inh,Ecoli rRNA inh OD600,Ecoli rRNA inh RFP,HNF4A DNA FP,FGF22 binding,Ecoli growth
O=C(NCCOC(=O)c1ccncc1)c1ccccc1,10,-0.9,-1,.,.,.,1.4,.,0.72
O=C(Cc1c(Cl)cccc1Cl)Nc1cccc(S(=O)(=O)N2CCOCC2)c1,-5,1.5,-4,-23*,4.9*,-1.6*,5.2,i,0.72
Oc1ccccc1/C=N/Nc1cc(N2CCCC2)nc(N2CCCC2)n1,17,.,27,.,.,.,3.6,.,.
COc1ccc(/C=C/C(=O)NC(=S)Nc2ccc(C(=O)O)cc2)cc1,8,-5.7,4,.,.,.,-3.2,.,0.68
Cn1nc(-c2ccc(C(=O)NCC3CCCO3)cc2)c2ccccc2c1=O (stereo not drawn),3,1.0,0,.,.,.,0.4,.,0.63
O=C(CN1C(=O)NC2(CCCCC2)C1=O)Nc1nc2c(F)cc(F)cc2s1,25,2.6,5,3,0,9.4,4.0,i,0.73
COC(=O)c1cc(C(=O)Nc2ccc(S(N)(=O)=O)cc2)cc([N+](=O)[O-])c1,-8,0.8,13,12,6,0.2,-5.0,i,0.69
CCOC(=O)c1cccc(NC(=O)CCc2c(C)nc3ncnn3c2C)c1,-6,4.8,-14,.,.,.,3.9,.,0.68
O=C(NCc1cccnc1)C1c2ccccc2C(=O)N1Cc1ccco1 (stereo not drawn),-7,-2.4,3,16,2,-5.1,-1.1,i,0.64
COc1cc(C=O)c(Br)cc1OC1CCCC1,-3,1.5,4,.,.,.,4.0,.,0.72
N#CCCN(C(=O)Nc1ccc(Cl)c(Cl)c1)c1ccccc1,-20,2.7,-10,.,.,.,-1.1,.,0.67
O=C(c1ccc(-c2ccccc2)cc1)N1CCN(C(=O)c2ccco2)CC1,-3,-3.0,-1,.,.,.,-2.5,.,0.74
CC12CCC(c3c(C(=O)Nc4nccs4)nn(-c4ccccc4)c31)C2(C)C (stereo not drawn),1,-7.9,-3,.,.,.,-0.5,.,0.72
O=C(NCC1CCCO1)c1ccc(COc2ccc(Br)cc2)cc1 (stereo not drawn),-4,-1.1,-3,.,.,.,2.9,.,0.64
CCCNC(=O)Cn1cnc2sc(C(=O)N3CCN(c4ccc(F)cc4)CC3)c(C)c2c1=O,-3,-0.4,-6,9,8,-0.6,12,.,0.74
O=C1COc2ccc(S(=O)(=O)N3CCc4ccccc43)cc2N1,.,2.4,-2,-10,-10,2.3,2.3,i,0.71
CCCc1ccc(OCC(O)CN2CCN(c3ccccn3)CC2)cc1 (stereo not drawn),-1,0.4,-9,-29,-26,-7.2,-1.7,i,0.62
O=S(=O)(c1ccccc1Cl)N1CCCC1c1nc(-c2cccc(Cl)c2)no1 (stereo not drawn),.,1.4,23,.,.,.,-1.7,.,0.68
c1csc(-c2nc3ccccc3[nH]2)c1,-8,-32,-17,.,.,.,-3.4,.,0.68
O=C(Cn1c(C(F)(F)F)nc2ccccc21)NCCCN1CCOCC1,-8,3.0,-2,.,.,.,-4.5,.,0.71
COC(=O)c1sccc1NC(=O)c1ccc(C)o1,-2,5.0,0,.,.,.,-0.3,.,0.69
C=CCN1C(=O)/C(=C/C=C2/N(CC)c3ccc(S(=O)(=O)N(C)C)cc3N2CC)SC1=S,74,4.5,-32,0,4,5.2,-55,i,0.71
O=C(NCc1ccncc1)C12CC3CC(CC(Cl)(C3)C1)C2,-10,2.1,-6,2,-4,0.9,0.0,i,0.69
CC(NC(=O)Cc1cccs1)c1ccccc1 (stereo not drawn),-13,0.7,-6,12,9,0.1,-0.2,i,0.7
CC(C)(C)C(=O)N1CCC(O)(CS(=O)(=O)Cc2ccc(Cl)cc2)CC1,-30,1.6,-4,.,.,.,-1.3,.,0.68
CCCn1c(SCC(=O)c2ccc3c(c2)OCCO3)nnc1C(C)C,31,2.7,-6,.,.,.,-0.2,.,0.74
C=CCn1c[n+](CC(=O)c2ccc(Br)s2)c2ccccc21,4,1.7,-2,-61,-81,-19,-2.4,i,0.64
CCc1nc2c(OCc3ccc(C(=O)OC)cc3)cccn2c1N(C)C(=O)CC(C)C,.,.,.,-14,-13,13,-0.1,i,.
O=C(c1cccs1)N1CCC(C(=O)N2CCN(Cc3ccc4c(c3)OCO4)CC2)CC1,2,5.6,2,12,-7,-1.6,1.7,i,0.69

# Grouped by structure, the entries above with a nitro group on carbon
SMILES,ALR H2O2 inh,UCH37 inh,B2AR ag,Ecoli rRNA inh,Ecoli rRNA inh OD600,Ecoli rRNA inh RFP,HNF4A DNA FP,FGF22 binding,Ecoli growth
O=C(NNS(=O)(=O)c1ccccc1[N+](=O)[O-])c1cccc(Br)c1,25,2.7,-5,-51,-76,-23,-1.5,i,0.63
O=[N+]([O-])c1cccc(-c2nc(NCc3ccccc3)c3ccccc3n2)c1,40,3.6,-4,.,.,.,-0.9,.,0.73
COC(=O)c1cc(C(=O)Nc2ccc(S(N)(=O)=O)cc2)cc([N+](=O)[O-])c1,-8,0.8,13,12,6,0.2,-5.0,i,0.69

# Next part
SMILES,ALR H2O2 inh,UCH37 inh,B2AR ag,Ecoli rRNA inh,Ecoli rRNA inh OD600,Ecoli rRNA inh RFP,HNF4A DNA FP,FGF22 binding,Ecoli growth
CCN1CCN(S(=O)(=O)c2ccc(S(=O)(=O)N(CC)Cc3ccccc3)cc2)CC1,-2,3.3,11,0,-3,-8.4,-0.3,i,0.65
Cc1[nH]c2ccccc2c1/C=C/c1nc2ccccc2c(=O)n1CCO,-4,-76,9,22,-16,-0.6,3.4,i,0.68
COc1ccc(-c2cc3nc(-c4ccccc4)cc(N4CCC(O)CC4)n3n2)cc1,1,-56,3,.,.,.,1.5,.,0.74
Cn1ccc2c(N3CCCC3)cc3c(c21)C1CCC3C1 (stereo not drawn),.,.,.,-2,13,-2.2,-4.1,i,.
COc1cc(NC(=O)c2cccs2)ccc1NC(=O)c1ccccc1Cl,8,0.2,-3,-32,-28,0.8,3.0,i,0.68
Cc1cc(=O)oc2cc(OC(C)C(=O)NC3(C#N)CCCCC3)ccc12 (stereo not drawn),.,-14,-5,2,7,-0.2,-3.4,i,0.63
O=C(Nc1nc(COc2ccccc2)cs1)C1CCC1,.,5.8,-41,.,.,.,0.0,.,0.67
Cc1ccc(CN2CCC(n3nccc3NC(=O)C3CCOC3)CC2)cc1 (stereo not drawn),-5,-1.1,6,17,14,6.0,0.4,i,0.74
CCN(CC)S(=O)(=O)c1ccc(NC(=O)CNC2CCCCC2)cc1,.,2.5,-5,9,6,-1.2,1.7,i,0.63
CC(=O)c1ccc(-n2nnnc2SCC(=O)N2CCN(C(=O)c3ccco3)CC2)cc1,-8,0.4,0,.,.,.,3.9,.,0.72
C/C(CCc1oc2c(Br)cc(Br)cc2c1-c1ccc(C)o1)=N\O,8,.,19,-7,-3,14,12,i,.
CCC(C)NC(=O)CC1Oc2ccc(Cl)cc2NC1=O (stereo not drawn),.,4.2,2,13,17,0.0,1.9,i,0.75
CCCc1[nH]nc2c1C(/C(C)=C/c1ccccc1)C(C#N)=C(N)O2 (stereo not drawn),16,0.7,-6,.,.,.,2.5,.,0.76
CC(=O)C1=C(O)C(=O)N(CC#N)C1c1cccs1 (stereo not drawn),1,5.4,-2,.,.,.,1.0,.,0.71
O=C(Nc1nnc(CSCc2ccc(Cl)cc2)s1)c1cccc([N+](=O)[O-])c1,-2,5.0,27,.,.,.,0.9,.,0.68
